Anthrax LT inh: qHTS Assay for Anthrax Lethal Toxin Internalization; actives 0.67% (n = 70,000); Potency, µM (titrated, usually from 40 µM), for the others: top-dose activity change, negative = inhibition, usual class: inhibitors; AID 912, 2007; Cells, anthrax lethal toxin internalization, FRET ratio (460/530); active = well fitted falling ratio curve with the 530 nm signal flat; inconclusive = other ratio curves, or a change in one channel alone; inactive = flat curves in the ratio and both channels; the % refers to the ratio; also: % is scaled to controls: 0 for no effect and ±100 for the full control effect; nearly all actives have a fitted effect of over 50% in size; tested in ME-180 cells; beta-lactamase reporter
SmPrx2 inh: Schistosoma Mansoni Peroxiredoxins (Prx2); Schistosoma mansoni peroxiredoxin 2 (Prx2); S. mansoni Prx2 activity coupled to TGR/GSH (TGR is thioredoxin glutathione reductase), NADPH fluorescence loss, qHTS; some inactives read as strong as hits; Potency, µM; actives 0.07% (n = 65,000); AID 448, 2006; active means full or partial inhibition curve with a strong effect at the top dose; inconclusive means weaker partial or single-point curve; inactive means no accepted curve; also: series up to 57 µM; many of its hits are not listed in these tables
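Enzyme mix: 100 uM NADPH, 25 nM TGR, 700 uM GSH, 50 nM Prx2 in 100 mM phosphate pH 7.4, 10 mM EDTA, 0.01% Tween-20. 15 min RT with compound; NADPH/GSH added, H2O2 starts reaction; NADPH fluorescence read 8 min.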
* = called active by the depositor; ? = inconclusive; · = no result given; & = joins results of further samples; [ ] = another dose, or the depositor's remark. Potency is read from the fitted curve at half-maximal effect.

mol,SmPrx2 inh,Anthrax LT inh
CC12CC(NC(=O)N1c1ccc(C(=O)N3CCN(c4ccc(F)cc4)CC3)cc1)c1ccccc1O2 (stereo not given),>57,-10%
c1ccc(CCc2nc(-c3ccncc3)no2)cc1,>57,-14%
COc1cc2c(cc1OC)CN(C(=O)c1ccc(OC)c(S(=O)(=O)N3CCOCC3)c1)CC2,>57,-7%
COc1ccc(Br)cc1C(=O)Nc1cccc(-c2nnc(-c3ccco3)o2)c1,>57,-4%
Cc1sc2nc(C(C)Sc3nnc(C)n3-c3ccccc3)[nH]c(=O)c2c1C (stereo not given),>57,-17%
C#CCSc1nnc(-c2cccc3ccccc23)o1,>57,?
COc1ccc(NS(=O)(=O)c2cccc3cccnc23)cc1,>57,2%
COC(=O)c1ccc(C2C(C(=O)OC(C)C)=C(C)N=C3SCCC(=O)N32)cc1 (stereo not given),·,-2%
CCOc1ccccc1C1CC(=O)Nc2cc3c(cc21)OCCO3 (stereo not given),>57,-12%
O=c1c(N2CCCCC2)coc2ccccc12,>57,-1%
COc1ccc(CN2CCN(C(=O)CN3C(=O)C4C5C=CC(C5)C4C3=O)CC2)c(OC)c1OC (stereo not given),>57,9%
CCOC(=O)C1=C(O)CSC1=Nc1cccc(Cl)c1,·,8%
COc1ccc(C(=O)Nc2ccc(Cl)cn2)cc1Cl,>57,-10%
Fc1ccc(-c2nnc(CN3CCN(c4ncc(C(F)(F)F)cc4Cl)CC3)o2)cc1,>57,?
COC(=O)c1[nH]c2ccc(C)cc2c1NC(=O)CN1CCc2cc(OC)c(OC)cc2C1,>57,-14%
Cc1c(C(=O)N2CCOCC2)[nH]c2c1C(=O)CC(c1ccccc1Cl)C2 (stereo not given),>57,·
CC(C)CNC(=O)COC(=O)c1cc(S(=O)(=O)N2CCCCC2)ccc1N1CCOCC1,>57,6%
CC(=O)c1cccc(NC(=O)CC2Oc3ccc(C)cc3NC2=O)c1 (stereo not given),>57,-5%
CCc1nnc(NC(=O)CSc2nc3c(cc2C#N)CCC3)s1,>57,-17%
COc1cc2c(cc1OC)C(C(=O)N1CCC3(CC1)OCCO3)C(c1ccccc1F)N(C)C2=O (stereo not given),>57,-11%
c1nc(N2CCOCC2)c2cc(-c3ccoc3)ccc2n1,>57,-11%
CCN(CC)S(=O)(=O)c1cc(C(=O)O)ccc1Cl,>57,1%
Cc1ccc(Cn2nnnc2CN2CCC(O)(c3ccc(F)cc3)CC2)cc1,>57,-1%
CCOC(=O)c1csc(NC(=O)CSc2nnnn2CC)n1,>57,-6%
Nn1c(COc2ccccc2)nnc1SCc1cc(=O)[nH]c2ccccc12,>57,-5%
CN1CCN(c2nc3c(c(=O)n(C)c(=O)n3C)n2CC(=O)C23CC4CC(CC(C4)C2)C3)CC1,>57,1%
CCCC(c1nnnn1Cc1cccs1)N1CCN(c2nc3ccccc3s2)CC1 (stereo not given),>57,?
COc1ccc(C)cc1NC(=O)C1CCCN(S(=O)(=O)c2cccc3nonc23)C1 (stereo not given),>57,12%
CC1=[N+]([O-])C(C)(C)C(C)N(O)C1=O (stereo not given),>57,3%
COc1cc(-c2csc(C)n2)ccc1O,>57,3%
CCC1(C(=O)OC)NC(c2ccco2)C2C(=O)N(c3ccccc3)C(=O)C21 (stereo not given),>57,-10%
COc1cc(NC(=O)CN2CC(c3ccccc3)CC2=O)cc(OC)c1 (stereo not given),>57,-1%
O=C(c1cnn(-c2ccccc2)c1-n1cccc1)N1CCN(C2CCCCC2)CC1,>57,5%
Cc1ccc(C)c2[nH]c(=O)c(C(c3nnnn3CCc3ccccc3)N3CCOCC3)cc12 (stereo not given),>57,-2%
COc1ccc(-n2c(Cc3cccn3C)nnc2SCC(=O)Nc2ccccc2OC)cc1,·,-5%
CCn1c(=O)cc(N2CCCCC2)[nH]c1=O,>57,6%

An excerpt from above in order of SMILES length, ascending:
mol,SmPrx2 inh,Anthrax LT inh
CC1=[N+]([O-])C(C)(C)C(C)N(O)C1=O (stereo not given),>57,3%
COc1ccc(-n2c(Cc3cccn3C)nnc2SCC(=O)Nc2ccccc2OC)cc1,·,-5%
COc1ccc(C)cc1NC(=O)C1CCCN(S(=O)(=O)c2cccc3nonc23)C1 (stereo not given),>57,12%
Cc1ccc(C)c2[nH]c(=O)c(C(c3nnnn3CCc3ccccc3)N3CCOCC3)cc12 (stereo not given),>57,-2%

The results go on.
mol,SmPrx2 inh,Anthrax LT inh
O=C(c1cnccn1)N1CCC2(CCN(Cc3ccccc3)CC2)CC1,>57,4%
CC(=O)Nc1ccc(S(=O)(=O)N2CCC(NC(C)=O)(c3cccc(F)c3)CC2)cc1,>57,9%
CC(Oc1ccc(Cl)cc1)C(=O)Nc1ncccn1 (stereo not given),>57,-13%
FC(F)(F)c1nnc2ccc(N3CCOCC3)nn12,>57,4%
Cn1c(SCc2nc(-c3cccs3)no2)nnc1C1CCCCC1,>57,-4%
N#Cc1c(/N=C/c2cccs2)sc2c1CCCCC2,·,?
Cn1nc(C(=O)OCC(=O)N2CCc3ccccc32)c2ccccc2c1=O,>57,-1%
O=c1cccc2n1CC1CC2CN(C(c2ccccc2)c2sc3ncnn3c2O)C1 (stereo not given),>57,6%
COC(=O)[C@@]1(C)C=C[C@@H](Cc2ccccc2)N1C,·,-5%
Cc1c(C#N)c(N)c(C(=O)c2ccccc2)n1Cc1ccccc1,>57,-14%
Cc1nc2nc(SCC(=O)NCc3ccco3)nn2c(C)c1Cc1c(F)cccc1Cl,>57,-8%
CC(C)NC(=O)c1cc2c(-c3ccc(Cl)cc3)nn(C)c2s1,>57,-4%
O=C(CSc1nc(N2CCCCC2)nc(N2CCCCC2)n1)NC1CCCCC1,>57,-1%
CC1(C)C(c2ccccc2)=NC(c2cccnc2)=[N+]1[O-],·,11%
O=C(NCc1ccccn1)C1CCN(S(=O)(=O)N2CCCC2)CC1,>57,10%
COc1ccc2c(=O)cc(-c3ccccc3)oc2c1O,>57,1%
CCN(CC)S(=O)(=O)c1ccc(C(=O)OCn2nnc3ccccc3c2=O)cc1,>57,?
CCOc1ccccc1Nc1nnc(SCc2ccc(C(=O)OC)o2)s1,>57,5%
CC1CN(c2oc(-c3ccco3)nc2C#N)CC(C)O1 (stereo not given),>57,1%
O=C(CSc1ncnc2c1oc1ccccc12)NCC1CCCO1 (stereo not given),>57,6%
CCOC(=O)C1C(=O)CC(C)(O)C(C(=O)OCC)C1c1cccc(OC(F)(F)C(F)F)c1 (stereo not given),>57,7%
CCCCCCCCCCCCC/C=C\[C@H](O)[C@H](N)CO,>57,-19%
Cc1cc(NC(=O)CSc2nnc(-c3cccnc3)n2C)no1,>57,-20%
COc1ccc(NC(=O)N2CCC3(CC2)CCN(C(=O)Oc2ccccc2)CC3)cc1,>57,?
CCOC(=O)N1CCN(C(=O)c2oc3ccc(S(=O)(=O)N4CCOCC4)cc3c2C)CC1,>57,11%
Cc1nn(C)c(C)c1S(=O)(=O)N1CCC(C(=O)NCCC2=CCCCC2)CC1,>57,0%
COc1ccc(-c2nn(-c3ccccc3)cc2/C=N/n2cnnc2)cc1OC,>57,-9%
CCOC(=O)CSC1=C(C#N)C(C)C2=C(CCCC2=O)N1 (stereo not given),>57,6%
CC(C)(C)NS(=O)(=O)c1ccc(CCC(=O)N2CCOCC2)cc1,>57,9%
C=C(C)C(=O)OCC1CN2C(CCC(C)C2c2ccc(Br)cc2)C(=O)O1 (stereo not given),·,-11%&3%&-22%[8 µM]
O=c1[nH]c2cc3c(cc2cc1C(c1nnnn1C1CCCC1)N1CCCc2ccccc21)OCCO3 (stereo not given),>57,7.9µM*
O=C1Nc2ccccc2[C@]1(O)Cc1ccccn1,>57,-3%[8 µM]
Cc1c(S(=O)(=O)N2CCc3ccccc3C2)c(=O)n(C)c(=O)n1C,>57,-21%
CCn1c(SCC(=O)OCC(=O)N2c3ccccc3NC(=O)C2(C)C)nnc1-c1ccco1,>57,?
CCSc1ccc2c(c1)N(CCCN1CCN(C)CC1)c1ccccc1S2,>57,15%[3.58 µM]
Clc1cccc(Cl)c1Cl,·,-18%

Complete entries as entered above. Order of screens: SmPrx2 inh	Anthrax LT inh
CCn1c(SCC(=O)OCC(=O)N2c3ccccc3NC(=O)C2(C)C)nnc1-c1ccco1 as listed: >57	?
Cc1c(S(=O)(=O)N2CCc3ccccc3C2)c(=O)n(C)c(=O)n1C as listed: >57	-21%
CCOC(=O)N1CCN(C(=O)c2oc3ccc(S(=O)(=O)N4CCOCC4)cc3c2C)CC1 as listed: >57	11%
C=C(C)C(=O)OCC1CN2C(CCC(C)C2c2ccc(Br)cc2)C(=O)O1 (stereo not given) as listed: ·	-11%&3%&-22%[8 µM]

Remaining list, next part.
mol,SmPrx2 inh,Anthrax LT inh
O=C(CCc1ccccc1)Nc1ccc(N2CCOCC2)cc1,·,8%
O=c1c2ccccc2n(Cc2ccc(F)cc2)c(=O)n1C1CCCC1,>57,?
Cc1cc(O)c(-c2n[nH]c3c2C(c2cccc(O)c2)N(Cc2cccnc2)C3=O)cc1Cl (stereo not given),·,?
COc1ccc(CC(NC(=O)c2ccccc2)C(=O)NCC(=O)O)cc1 (stereo not given),>57,0%
CC(=O)Nc1ccc(C(=O)Nc2ccc(S(=O)(=O)N3CCCC3)cc2)cc1,·,9%
Cn1ncc2c(NCc3ccccc3)ncnc21,>57,-8%
CCCCC(=O)Nc1ccc2oc(-c3ccncc3)nc2c1,>57,-3%
COCCn1nnnc1C(CC(C)C)N1CCN(c2cccc(OC)c2)CC1 (stereo not given),>57,-16%
COCCn1c(-c2ccc(-c3ccccc3Cl)o2)nc2c1c(=O)[nH]c(=O)n2CC(C)C,>57,?
O=S(=O)(NC1CC1)c1ccc(S(=O)(=O)N2CCCC3(CCCCC3)C2)cc1,>57,6%
Cc1cc(C)c(NC(=O)CSc2nnc(-c3ccncc3)n2Cc2ccco2)c(C)c1,>57,-4%
CC(C)OCCCN1CN(S(=O)(=O)c2ccccc2)c2nc3ccccc3nc21,>57,?
CCOC(=O)N1CCN(C(C)C(=O)c2c[nH]c3ccccc23)CC1 (stereo not given),>57,1%
CC1=CCC(COC(=O)Nc2ccccc2)CC1 (stereo not given),·,?
CCn1c(Cn2nnc(-c3ccccc3)n2)nnc1SCC(=O)Nc1ccc(C(C)=O)cc1,>57,-21%
Cc1ccc2c(c1)cc(CN(Cc1cccs1)C(=O)c1ccco1)c1nnnn12,>57,-9%
CCC(C)NC(=O)C1CCCN(S(=O)(=O)c2ccc(-n3cnnn3)cc2)C1 (stereo not given),>57,-6%
CCOc1ccc(N2C(=O)C3CCCN3C2=O)cc1 (stereo not given),>57,-4%
CN(C)CCNc1oc(COc2ccc(-c3ccccc3)cc2)nc1C#N,>57,-25%
Cc1cccc(N2C(=O)SC(N(CC(=O)O)c3cccc(C)c3)C2=O)c1 (stereo not given),>57,-9%
O=C(O)CCc1ccc(-c2cccs2)n1CCC(=O)O,>57,9%
c1ccc(C[N+]23CN4CN(CN(C4)C2)C3)cc1,>57,?
Cc1ccc(C2C(C(=O)c3sc(C)nc3C)=C(O)C(=O)N2CCCN(C)C)o1 (stereo not given),>57,11%
CCOc1ccc2nc(C(C)O)[nH]c2c1 (stereo not given),>57,8%
C=CCNC(=O)CN(c1ccc(F)cc1)S(=O)(=O)c1ccc(OC)cc1,>57,1%
COC(=O)c1ccc(C(NC(=O)OCc2ccccc2)/C(=C/[C@@H](C)C(=O)NCc2cc(F)cc(F)c2)c2cccnc2)cc1 (stereo not given in full),·,?
CCOC(=O)Cc1c(C)nc2c(-c3cccc(Br)c3)c[nH]n2c1=O,·,2%
COC(=O)CCC(NC(=O)c1cc(-c2ccc3c(c2)OCCO3)oc1C)C(=O)OC (stereo not given),>57,7%
CCC(=O)N1c2ccc(S(=O)(=O)CCC(=O)NCc3ccc4c(c3)OCO4)cc2CC1C (stereo not given),>57,-12%
CC(C)(C)C(=O)OCC1OC(n2cnc(C(N)=O)n2)C(O)C1O (stereo not given),>57,6%
CN(C)Cc1ccccc1-c1nc(N(C)C)c2ccccc2n1,>57,?
COC(=O)[C@@]1(Cc2ccc(OC)cc2)[C@H]2c3cc(C(=O)N4CCCC4)n(Cc4ccc(Cl)c(C(F)(F)F)c4)c3C[C@H]2CN1C(=O)c1ccccc1,>57,?
CCC(CC)C(=O)N(c1ccc(F)cc1)C1C=CS(=O)(=O)C1 (stereo not given),>57,0%
Cn1c(=O)c2cc(S(=O)(=O)Nc3ccc4c(c3)OCO4)ccc2n(C)c1=O,>57,1%

These rows are one share of the data (hit frequency here may not be typical).
